# Screening results: PubChem BioAssay, ICCB-Longwood Screening Facility, Harvard Medical School
# fixLJ activator = B. multivorans fixK reporter activation. B. multivorans fixK-promoter GFP reporter, 18 h; hits give high values. z-score (no concentration beside the values). AID 1918990. actives 0.3% (n = 29,000);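 active means replicate mean overnight rise in green fluorescent reporter signal, 3 or more SD over negative controls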;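 further: score is relative to vehicle wells of the plate; 300 nL library stock went into each well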
# Starred values were filed as active, the others as inactive. A portion of the library; the hit share may differ from the screen's.
SMILES	fixLJ activator
Cc1ccc(C)c(NC(=O)CCNc2ccc(C(=O)N3CCOCC3)cn2)c1	-0.21
O=S(=O)(Nc1ccc(Cl)cc1)c1ccc(NS(=O)(=O)c2ccc3c(c2)OCCO3)cc1	-0.53
CCOc1ccc(C2C(C(=O)Nc3ccc(Cl)cc3)=C(C)Nc3nc(C(F)(F)F)nn32)cc1 (configuration not stated)	0.76
CC(CS(C)(=O)=O)N1CCOC2(CCN(Cc3nccs3)CC2)C1 (configuration not stated)	1.87
Cc1ccc(NC(=O)CSc2nnc3nc(C)cc(C)n23)cc1	-3.43
CN(C)CC1(O)CCCN(C(=O)C2=Cc3ccccc3OC=C2)CC1 (configuration not stated)	-2.16
Cc1nc(CCN(C)C(=O)Cc2cccc(OCCN)c2)no1	-2.03
Cc1ccc(OCCCn2c(-c3ccc(Cl)cc3)nc3ccccc3c2=O)cc1C	-1.36
COCc1noc(CN2CCC3(CC2)CN(CC(C)c2ccccc2)C(=O)O3)n1 (configuration not stated)	-0.01
COCC(C)NC(=O)c1cccc(S(=O)(=O)NCc2noc(C)n2)c1 (configuration not stated)	-1.14
COc1cccc(Cn2cnc3c2c(=O)n(C)c(=O)n3C)c1	-0.01
CCNc1ncc(C(=O)NCCc2cccc(OC)c2)cn1	-0.33
CCCCS(=O)(=O)N1CC2CCC(C1)C2NC(=O)c1cc(=O)c(OC)c[nH]1 (configuration not stated)	-1.28
COCCCNC(=O)CSc1c2c(nc3ccc(Cl)cc13)CCCC2	-2.26
Cc1ccc(C(=O)O)cc1NC(=O)c1nsc2ccccc12	-0.69
CCOc1ccc(CCNC(=O)CSc2cc(=O)n(C)c3cc(Cl)ccc23)cc1OCC	-0.48
CCCc1cc(=O)[nH]c(Nc2cc(Cl)cc(Cl)c2)n1	-2.1
COc1ccc(C2CC(=O)N(CC(=O)Nc3ccc(C(F)(F)F)cc3)c3ccccc3S2)cc1 (configuration not stated)	-0.22
COC1CC[C@@]2(OC)CCN(C(=O)c3cc(C)nc4c(C)c(C)ccc34)C2C1 (some centres not stated)	-2.32
CCn1c(=O)c2cc(C(=O)NCc3ccc(F)cc3Cl)sc2c2ccccc21	-1.62

# (cont.)
SMILES	fixLJ activator
COc1ccc(-c2noc(CSc3nnc(C)n3-c3ccc(OC)cc3)n2)cc1	-0.14
CN(C)CCNC(=O)Cn1nc(CC2CC2)nc1C(N)Cc1ccccc1 (configuration not stated)	0.36
Cc1ccc2cccc(NC(=O)c3ccc(-c4ccc(Br)cc4)o3)c2n1	-3.62
CCn1c(=O)n(-c2ccc3c(c2)OCO3)c2nc(-c3cccc(OC)c3OC)nc(C(N)=O)c21	0.39
CCOc1ccc(N(C(=O)c2ccccc2F)S(=O)(=O)c2ccc3c(c2)n(C)c(=O)n3C)cc1	0.05
CC1=Nc2cc(C(=O)NC3CCCC3)ccc2Sc2ccc(Br)cc21	-1.55
CCn1c(Cn2ccnc2)nnc1C1CCN(C(=O)c2cn(C)nc2C)CC1	-2.26
CSc1cccc(NC(=O)Cn2c(=O)n(Cc3ccccc3)c(=O)c3sc4ccccc4c32)c1	-0.16
COc1cc(C2c3c(-c4ccccc4O)n[nH]c3C(=O)N2CCO)ccc1OCc1ccccc1 (configuration not stated)	0.63
CCNC(=O)CN1CCN(C(=O)c2cccc(CCC(C)(C)O)c2)CC1	0.94
Nc1ccc(C(=O)NCC(=O)O)cc1	-0.24
O=C(Cc1ccccc1)Nc1sc2c(c1C(=O)Nc1ccccc1)CCCCC2	-1.89
COc1cc2ccccc2cc1C(=O)Nc1ccc2oc(-c3ccc(F)cc3)nc2c1	-0.09
O=C(CCCN1CCCC1=O)NC(c1cnc2ccccc2c1)C1CC(O)C1 (configuration not stated)	0.6
COc1cc(-c2nc3nc[nH]n3c2Nc2ccc(C(C)C)cc2)ccc1O	-1.19
Cc1ccc(-c2nc(N3CCCC(C)C3)c3ccccc3n2)cc1 (configuration not stated)	0.91
CCc1ccc2oc(-c3ccc(C)c(NC(=O)c4ccc(C#N)cc4F)c3)nc2c1	-2.7
Cc1cccc(N2CCN(S(=O)(=O)c3c(C)nc4scc(C)n4c3=O)CC2)c1C	-1.68
COc1ccc(N(C)C(=O)c2oc(=O)c3ccccc3c2-c2ccc(C)cc2)c(OC)c1	-0.57
Cc1nc(CCC(=O)N2CCCCC2CCn2ccnc2C)n[nH]1 (configuration not stated)	-0.76

# The listing continues:
SMILES	fixLJ activator
COc1cccc(C(=O)NCC2CCCN(Cc3ccccc3C#N)C2)c1 (configuration not stated)	0.26
CCOC(=O)COc1ccc(CC)cc1C(=O)c1ccn2nc(-c3ccc(C)cc3)cc2n1	-0.07
CN(C(=O)c1cccs1)c1ccccc1C(=O)NCc1ccc2[nH]c(=O)[nH]c2c1	-0.26
COc1cc(C2N=C(N)Nc3nc4ccccc4n32)ccc1OCCC(C)C (configuration not stated)	-1.44
NC(=O)C1(NC(=O)NCCc2nc(Cc3ccccc3)no2)CCCC1	-0.25
O=C(Nc1cccc2cccnc12)c1cccc2ccccc12	-0.96
COc1nc(-c2cccc(C(=O)NCc3csc(N(C)C)n3)c2)nn1C	0.71
Cc1cccc(CCNC(=O)Cn2ncc3c(=O)oc4ccccc4c32)c1	-1.21
COCCNC(=O)c1c(NC(=O)Cc2coc3cc(C)ccc23)sc2c1CCCC2	0.72
CN(c1ccc(C(=O)NCc2nc(C3CC3)no2)cc1)S(C)(=O)=O	0.04
O=C(CCC(=O)N1CCN(CC(F)(F)F)CC1)Nc1cccc(O)c1	-0.53
CNc1nc(-c2cccc(C(=O)NC(C)c3c(C)n[nH]c3C)c2)ncc1F (configuration not stated)	0
N#Cc1ccccc1NC(=O)c1cc2c(=O)n3ccccc3nc2s1	0.09
Cc1ccc(NC(=O)CN(C)S(=O)(=O)c2ccc3c(c2)n(C)c(=O)c(=O)n3C)cc1C	0.35
CCOc1ccc(-n2c(Cc3ccccc3)nnc2SCc2nc(-c3ccccc3OC)no2)cc1	-1.51
CNC(=O)CCc1ccccc1NC(=O)C1CCCN(c2ccccn2)C1 (configuration not stated)	-1.68
COc1ccc(CNC(=O)Cc2csc3ccccc23)cc1OC	-0.15
COc1ccccc1CNC(=O)CSc1ncc2c(n1)-c1ccccc1N(Cc1ccc(C)cc1)S2(=O)=O	-0.41
CCc1c(C)noc1NC(=O)C1CC(=O)OC12CCCCC2 (configuration not stated)	-1.97
CCOC(=O)C1CCN(C(=O)Cn2ncc3c4ccccc4n(Cc4ccccc4F)c3c2=O)CC1	-1.99

# Next results:
SMILES	fixLJ activator
CC(Oc1ccccc1CN1CCN(Cc2nccn2C)CC1)C(=O)O (configuration not stated)	-1.03
CCOc1ccc(C2C(C(N)=O)=C(C)Nc3nc(SCc4ccccc4F)nn32)cc1 (configuration not stated)	-1.53
COc1ccc(CNC(=O)CN(c2ccc(C)cc2)S(=O)(=O)c2c(C)n[nH]c2C)cc1	-0.98
Cc1ccc2c(c1)-c1nc(-c3ccc4c(c3)NC(=O)CO4)cc(-c3ccc(Cl)cc3)c1CO2	0.29
O=C(NCCc1csc(-c2ncccn2)n1)C(O)c1ccc(F)cc1 (configuration not stated)	-0.61
COc1ccc(NC(=O)c2oc3ccccc3c2NC(=O)COc2ccc(C(C)C)cc2)c(OC)c1	-1.36
Nc1nc(C2CC(NC(=O)CCc3ccc(-c4cccs4)o3)C2)cc(=O)[nH]1 (configuration not stated)	-1.32
N#Cc1ccccc1CSc1nnc(-c2ccc(Br)cc2)o1	-0.9
CCN1CCSc2ccc(C(=O)NCc3ccc(OC)cc3)cc21	-0.35
O=C(NCCCn1cncn1)C1CCCN(Cc2ccco2)C1 (configuration not stated)	0.68
COc1cc(NC(=O)C(Cc2ccccc2)NS(=O)(=O)c2cccc3nsnc23)cc(OC)c1 (configuration not stated)	-0.79
CCOC(=O)c1ccc(NC(=O)CN(Cc2ccc(C)cc2)S(=O)(=O)c2ccc(C)cc2)cc1	1.24
Cc1cccc(NC(=O)c2ccc(C(=O)Nc3cccc(C)c3C)cc2)c1C	-0.89
CCn1nc(C)c(CN(CCOC)C(=O)Cc2ccccc2O)c1C	-0.22
COc1ccc2c(c1)C(C(=O)N1CCN(c3cccnc3)CC1)CC(=O)N2 (configuration not stated)	0.72
CC1=C(C(=O)Nc2cccnc2)C(c2ccc(Cl)cc2)n2nc(-c3ccccc3)nc2N1 (configuration not stated)	-1.62
CCc1ccc2occ(CC(=O)Nc3nnc(SC)s3)c2c1	-0.26
CCNC(=O)c1c(NC(=O)Cc2coc3ccc(CC)cc23)sc2c1CCCC2	-0.54
Cc1ccc2c(=O)cc(C(=O)Nc3sc4c(c3C(=O)NCc3ccccc3)CCCC4)oc2c1C	-0.34
Cc1c2oc3c(C)ccc(C(=O)OC(C)C4NC(=O)C(C(C)C)N(C)C(=O)CN(C)C(=O)C5CCCN5C(=O)C(C(C)C)NC4=O)c3nc-2c(C(=O)OC(C)C2NC(=O)C(C(C)C)N(C)C(=O)CN(C)C(=O)C3CCCN3C(=O)C(C(C)C)NC2=O)c(N)c1=O (configuration not stated)	-1.04

# The list continues.
SMILES	fixLJ activator
COc1ccc(CNC(=O)CN(c2ccc(OC)cc2)S(=O)(=O)c2c(C)[nH]c(=O)[nH]c2=O)cc1	-1.32
Cc1ccc(OCCn2nnc3sc4c(c3c2=O)CCC(C(C)(C)C)C4)cc1 (configuration not stated)	-1.48
Cc1c(NS(=O)(=O)c2cccc(C(=O)O)c2)c(=O)n(-c2ccccc2)n1C	-0.43
CCN1CC(NC(=O)c2ccc(-c3ccccc3C(C)=O)cc2)C(OC)C1 (configuration not stated)	0.12
CS(=O)(=O)N1CCCn2nc(CNC(=O)CC3CCCC3)cc2C1	-0.69
O=C(Nc1ccc2oc(-c3cccnc3)nc2c1)c1ccc(-c2ccc(Cl)cc2)o1	-1.15
COCCN1CCC(C(=O)Nc2c3c(nn2C)CSC3)C1 (configuration not stated)	0.25
CCOc1cc(C2CC(=O)Nc3cc4c(cc32)OCCO4)ccc1O (configuration not stated)	0.37
COc1ccc(C(C)C)cc1S(=O)(=O)NCCc1c(C)[nH]c2ccc(C)cc12	0.35
O=S(=O)(c1ccc(Cl)cc1)c1nc(-c2ccccc2)oc1N1CCN(c2ccccc2)CC1	0.38
CCc1ccc(NC(=O)Cn2nnc(C(=O)NCCc3ccccc3)c2N)cc1	-1.2
CCCOC(=O)c1cccc(Nc2nc(CCC)cc(=O)[nH]2)c1	-1.21
COc1ccc(CNC(=O)c2cc(Nc3ccc(OC)cc3OC)nc3ccccc23)cc1	1.38
CC(C)CN(CC(C)C)c1nc(-c2ccc(Cl)cc2)nc2ccccc12	-1.12
Cc1oc2ccc(O)c(CN3CCCCCC3)c2c1C(=O)Nc1cccc(Cl)c1C	0.02
COc1ccc(NC2(C(=O)N3CC(O)C(CS(=O)(=O)N(C)C)C3)CCCCC2)cc1 (configuration not stated)	-1.56
O=C(c1cccc2c3c([nH]c12)CCCC3)N1CC(O)C(Cc2ccccn2)C1 (configuration not stated)	-1.27
CN1CCC(N2CCCC2C(=O)NCc2cccnc2N)CC1 (configuration not stated)	0.68
CCN1CCSc2ccc(C(=O)NCc3cccc(F)c3)cc21	-2.68
Cc1ccc(C(=O)COC(=O)CCCC(=O)Nc2cc(C(F)(F)F)ccc2Cl)cc1C	0.25

# Additional compounds follow.
SMILES	fixLJ activator
Cc1ccc(C)c(N(C)C(=O)CCNC(=O)Cn2cnc3ccccc3c2=O)c1	-0.92
COc1ccc(OC)c(NC(=O)CSc2nc3ccccc3nc2N2CCCCC2)c1	0.65
CO[C@@]12CCC(O)CC1N(C(=O)CN(c1cccc(C)c1)S(C)(=O)=O)CC2 (some centres not stated)	-2
CCOc1ccc(-n2c(=O)c3c4c(sc3n(Cc3cc(=O)n5cc(Cl)ccc5n3)c2=O)CCC4)cc1	-1.7
Cc1cc(C(=O)Nc2ccccc2CN2CCOCC2)on1	-0.46
CN1CCCC2(CCN(c3nc4c(cc3C(N)=O)CCC4)C2)C1=O (configuration not stated)	1.15
CCOc1ccc(C2c3c(oc4ccccc4c3=O)C(=O)N2c2nnc(C)s2)cc1OC (configuration not stated)	-0.19
Cc1ncc(C(=O)N2CCC3(CCCN(C)C3=O)C2)c(=O)[nH]1 (configuration not stated)	-1.25
COC(=O)CN1CCCC2(CCC(=O)N(Cc3cnc(C)cn3)C2)C1 (configuration not stated)	-1.37
Cc1noc(C)c1CN1C(=O)C2CCC1CN(c1ncnc3[nH]ccc13)C2 (configuration not stated)	-0.26
Cc1cc(C)cc(NC(=O)N2CCC(N3CCCCC3)CC2)c1	-1.12
CCOc1ccc(-n2c(-c3ccc(C)cc3)nc3c(cnn3-c3ccccc3)c2=O)cc1	-2.91
Cc1ccc(CN2CCSc3ccc(C(=O)Nc4ccc(Cl)cc4)cc32)cc1	0.32
O=C(Nc1ccc(-c2nc3ccccc3s2)c(O)c1)c1ccc(Br)cc1	-2.33
COc1cccc(CNC(=O)CCNS(=O)(=O)c2cccc3nsnc23)c1	0.22
